Choline anaer gr: growth inhibitors of anaerobic choline-fed gram-negatives, minimal medium, absorbance; Gram-negative bacterium anaerobic choline minimal medium; active compounds read low; many inactives read as strong as hits in the columns shown; calls only; actives 0.2% (n = 55,000); AID 1963822, 2024;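 active = growth z-score on choline under -2 at 7 or 20 h with little or no fall on glycerol, limits in tiers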;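 also: stock transfer was 300 nL into about 50 µL; the organism is E. coli; final concentration not given here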
Choline anaer gr early: recorded beside Choline anaer gr, whose call it bears; z-score; measured here: choline growth z-score, timepoint 1;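 score of optical density at 7 h as mean of two plates; lower means less growth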
Starred values were filed as active, the others as inactive; i = inactive; & = joins results of further samples. An excerpt, so the mix of outcomes need not match the whole.

SMILES	Choline anaer gr	Choline anaer gr early
COc1ccc(OCC(=O)Nc2nc3ccc(S(=O)(=O)N4CCCCC4)cc3s2)cc1	i	-0.11
O=C(C1c2ccccc2C(=O)N2CCc3ccccc3C12)N1CCC(Cc2ccccc2)CC1 (stereo not given)	i	-0.84
COc1ccc2sc(N(CCN(C)C)C(=O)c3ccc(C(=O)c4ccccc4)cc3)nc2c1	i	0.45
Cc1ccc(-n2c(=O)c3c(cnn3C)n(Cc3ccccc3Cl)c2=O)cc1	i	1.1
CCn1c(=O)c(N2CCN(C(=O)c3cccc(OC)c3)CC2)nc2ccccc21	i	0.29
CCCCC/C=C\C/C=C\C/C=C\C=C\C(=O)CCCC(=O)O	i	0.87
CCCn1cnc2c(-c3cccc(F)c3)csc2c1=O	i	-0.32
COCCn1c(SCC(C)C)nc2c(-c3ccccc3)cn(C)c2c1=O	i	1.3
CN(C)c1ccc(O)c2c1C[C@H]1C[C@H]3[C@H](N(C)C)C(=O)C(C(N)=O)=C(O)[C@@]3(O)C(=O)C1=C2O	i	-2.9&0.09
CCC(C)NS(=O)(=O)c1cc(-c2ccno2)sc1C (stereo not given)	i	-0.14
O=C(Cn1cc(C(=O)c2ccncc2)c(=O)c2cc(Cl)ccc21)Nc1cccc(Cl)c1	i	0.62
Cn1c(=O)c2nc(SCc3cccc(F)c3)n(C)c2n(C)c1=O	i	0.88
CCOC(=O)N1CCN([C@H]2CS(=O)(=O)C[C@@H]2S(=O)(=O)c2cccs2)CC1	i	-0.41
CCOc1ccc(NC(=O)Nc2ccccc2SCc2cc(=O)n3oc(C)cc3n2)cc1	i	0.31
CC1c2cccn2-c2sc3c(c2CN1C(=O)Nc1ccccc1Br)CCN(C)C3 (stereo not given)	i	-0.04
CC(=O)NCc1nc(-c2ccc3c(c2)[nH]c(=O)c(=O)n3C)no1	i	-0.45
COc1cc(NC(C)CCCN)c2ncccc2c1 (stereo not given)	i	0.61&-0.03&0.15
CCCCC(=O)Nc1cc(Cl)ccc1OCc1cc(=O)n2cc(C)sc2n1	i	1.4
COc1ccccc1NC(=O)c1cn(-c2ccccc2)nc1-c1ccccc1	i	0.9
COc1ccc(C)cc1S(=O)(=O)N1CCN(c2cc(N3CCN(C)CC3)nc(C)n2)CC1	i	-0.08
CCCNC(=O)C1CCN(c2ccnc(-c3cccc(C)c3)n2)CC1	i	0.32
COc1ccc(NC(=O)N2CCc3c(c(-c4nnc(-c5ccc(F)cc5)o4)nn3C)C2)cc1OC	i	0.4
CCOC(=O)Cn1c(=O)n(CC2CCCO2)c2nc(-c3ccc(C)cc3)nc(C(N)=O)c21 (stereo not given)	i	-0.88
Cc1cccc(-n2c(=O)c3c(c4cc(C)ccc4n3C)n(CC(=O)Nc3ccc(F)cc3F)c2=O)c1	i	1
CC1CCN(C(=O)c2nc(N3CCSCC3)c3cn(C)nc3n2)CC1	i	0.9
Cc1ccc(-c2nc3ccccc3[nH]2)cc1NC(=O)C(C)C	i	0.51
Cc1ccc(C2CC(=O)Nc3c2c(C)nn3-c2ccc3nnc(C)n3n2)cc1C (stereo not given)	i	-1.3
CCOc1ccccc1C(=O)Nc1c(-c2ccc(F)cc2)nc2ccccn12	i	-1.4
CCOC(=O)CNC(=O)N1Cc2c(sc3c2CCCC3)-n2cccc2C1C (stereo not given)	i	-0.49
CCOc1ccc(CNC(=O)CCC(=O)N2CCSc3ncccc32)cc1OC	i	-0.87
O=C(O)c1ccc2c(c1)N(Cc1ccccc1)C(=O)c1ccccc1S2	i	-1.5
CCOc1ccc(-n2ccn3c(CCCC(=O)NCCc4c[nH]c5ccccc45)nnc3c2=O)cc1	i	1.3
Cc1ccc(C)c(S(=O)(=O)Nc2ccc3nnc(-c4ccccc4)n3n2)c1	i	0.22
CCc1cc(Sc2ccc(NC(=O)c3ccc(OC)c(OC)c3)cc2)n2ncnc2n1	i	0.24
Cc1ccc(C(C)C)c(OCCCCn2c(CO)nc3ccccc32)c1	i	1.9
CCOC(=O)c1ccc(NC(=O)c2ccc3nc(-c4ccccc4)cc(OCC)c3c2)cc1	i	2
C=CCn1nnc(NCc2ccc(-c3cc(Cl)ccc3Cl)o2)n1	i	-0.68
O=C(NC1CCCCC1)C1CCN(c2ccnc(-c3ccc(F)cc3)n2)CC1	i	0.33
CCc1cc(C2CCCN2C(=O)NC2CCCCC2)on1 (stereo not given)	i	-0.26
CCC(C(=O)NCCCOC)N1C(=O)CCCc2ccccc21 (stereo not given)	i	0.42
COc1ccccc1NC(=O)COc1ccc(C2Nc3ccccc3S(=O)(=O)N2Cc2ccccc2)cc1 (stereo not given)	i	0.86
O=S(=O)(c1cccnc1)N1CCn2cccc2C1c1ccc(F)cc1 (stereo not given)	i	0.06
COc1ccc(CSc2nnc3c(S(=O)(=O)N4CCCCC4)cccn23)cc1	i	0.22
CCCCCCCCCCCCCCCC(=O)OCC(COP(=O)(O)O)OC(=O)CCCCCCCCCCCCCCC (stereo not given)	i	0.53
Cc1ccc(Cl)cc1NC(=O)CSc1cc(C)c2cc(S(=O)(=O)N3CCCCC3)ccc2n1	i	1.5
COc1ccc(OCc2nc(-c3ccc4c(c3)[nH]c(=O)n4C3CCCC3)no2)cc1	i	-0.15
Cc1cccc(NC(=O)CSc2ccnc(=O)[nH]2)c1C	i	-0.95
COC(=O)CN1C(=O)CSc2ccc(S(=O)(=O)Nc3ccc(OC)cc3)cc21	i	-0.02

A stretch taken from the entries so far:
SMILES	Choline anaer gr	Choline anaer gr early
O=C(O)c1ccc2c(c1)N(Cc1ccccc1)C(=O)c1ccccc1S2	i	-1.5
CCOc1ccc(-n2ccn3c(CCCC(=O)NCCc4c[nH]c5ccccc45)nnc3c2=O)cc1	i	1.3
Cc1ccc(C)c(S(=O)(=O)Nc2ccc3nnc(-c4ccccc4)n3n2)c1	i	0.22
CCc1cc(Sc2ccc(NC(=O)c3ccc(OC)c(OC)c3)cc2)n2ncnc2n1	i	0.24
Cc1ccc(C(C)C)c(OCCCCn2c(CO)nc3ccccc32)c1	i	1.9
CCOC(=O)c1ccc(NC(=O)c2ccc3nc(-c4ccccc4)cc(OCC)c3c2)cc1	i	2
C=CCn1nnc(NCc2ccc(-c3cc(Cl)ccc3Cl)o2)n1	i	-0.68
O=C(NC1CCCCC1)C1CCN(c2ccnc(-c3ccc(F)cc3)n2)CC1	i	0.33
CCc1cc(C2CCCN2C(=O)NC2CCCCC2)on1 (stereo not given)	i	-0.26
CCC(C(=O)NCCCOC)N1C(=O)CCCc2ccccc21 (stereo not given)	i	0.42
COc1ccccc1NC(=O)COc1ccc(C2Nc3ccccc3S(=O)(=O)N2Cc2ccccc2)cc1 (stereo not given)	i	0.86
O=S(=O)(c1cccnc1)N1CCn2cccc2C1c1ccc(F)cc1 (stereo not given)	i	0.06
COc1ccc(CSc2nnc3c(S(=O)(=O)N4CCCCC4)cccn23)cc1	i	0.22
CCCCCCCCCCCCCCCC(=O)OCC(COP(=O)(O)O)OC(=O)CCCCCCCCCCCCCCC (stereo not given)	i	0.53
Cc1ccc(Cl)cc1NC(=O)CSc1cc(C)c2cc(S(=O)(=O)N3CCCCC3)ccc2n1	i	1.5

(more compounds)
SMILES	Choline anaer gr	Choline anaer gr early
O=C(NCc1cccnc1)c1ccc2c(=O)nc3c(-c4ccccc4)n[nH]n3c2c1	i	-0.2
CCOC(=O)c1cc(S(=O)(=O)N(C)CC(=O)N2CCCC2)cn1C	i	-0.37
CC(C)CCNC(=O)CSc1nc(N2CCc3ccccc3C2)nc2ccccc12	i	-0.64
O=C(c1cc(-c2cccnc2)n[nH]1)N1CCCC(C(=O)N2CCc3ccccc3C2)C1 (stereo not given)	i	-0.04
CC1CC(C)CN(CCCNC(=O)CCC(=O)N2CCSc3ccccc32)C1 (stereo not given)	i	0.47
CN1CCN(C(=O)c2nc(-c3ccccc3)n(-c3ccc(Cl)cc3)n2)CC1	i	0.72
COc1ccc(-c2cc(Oc3cccc(C(=O)NCc4ccc5c(c4)OCO5)c3)ncn2)cc1	i	-0.06
CCN1CCCn2c1nc1c2c(=O)[nH]c(=O)n1C	i	1.2
COc1ccc(NS(=O)(=O)c2cc(-c3nc(-c4ccccc4)no3)sc2C)cc1OC	i	-0.06
COC(=O)c1cc(S(=O)(=O)N(C)CC(=O)NC2CCCC2)cn1C	i	-0.54
O=C(NCc1ccc2c(c1)OCO2)C1CCN(c2ncnc3onc(-c4cccc(F)c4)c23)CC1	i	0.4
O=C(O)c1ccc(-n2[nH]c3oc4cc(=O)ccc-4cc3c2=O)cc1	i	-0.15
CCCCCCCNC(=O)C1CCN(c2ccc(-c3ccccc3)nn2)CC1	i	1.4
CCCCCOc1ccc(C2C3=C(CC(C)(C)CC3=O)Nc3ccccc3N2C(=O)CC)cc1 (stereo not given)	i	1.2
Cc1cc(C)c(S(=O)(=O)NC2COc3ccc(Br)cc3C2)cc1C (stereo not given)	i	-1.2
Cc1cc(C(=O)NCc2cccnc2)c2c(C)nn(-c3ccccc3)c2n1	i	1.3
Cc1ccc(OCC(=O)Nc2cc(C)ccc2OCc2cc(=O)n3oc(C)cc3n2)c(C)c1	i	-2.5
CC(C)(C)C(=O)Nc1ccccc1SCc1nnc(-c2ccccc2)o1	i	-0.64
Cc1nnc(NC(=O)CSc2nnc3ccc(-c4ccncc4)nn23)s1	i	-0.04
CCCCC1CCC(C(=O)Nc2cc(C)nn2-c2ncnc3c2cnn3-c2ccc(F)cc2)CC1 (stereo not given)	i	-1.2
O=S(=O)(Nc1ccc(F)cc1)c1ccccc1-c1nc(-c2ccccc2)no1	i	0.04
Cn1c(=O)c2c3c(cnc2n(C)c1=O)C(=O)CC(c1cccs1)C3 (stereo not given)	i	0.52
Cc1cc(C)n2nc(N(CCOc3ccccc3)S(=O)(=O)c3ccc(Cl)cc3)nc2n1	i	0.8
COC(=O)c1ccccc1NC(=O)C1=Cc2ccc(C)cc2OC=C1	i	2.9
CCOC(=O)c1noc2ncn(CC(=O)N(C)C3CCCCC3)c(=O)c12	i	-0.89
CNC(=O)N1CCc2cc(S(=O)(=O)N3CCCCC3)ccc21	i	-1.9
CCOC(=O)c1[nH]c(C)c(S(=O)(=O)NCCC2=CCCCC2)c1C	i	1.4
Cc1csc(NC(=O)CCc2nc(-c3nn(-c4ccc(F)cc4)c(=O)n(C)c3=O)no2)n1	i	1.5
Cc1nnc2ccc(N3CCC(C(=O)NCc4cccc(Cl)c4)CC3)nn12	i	-0.06
O=C(NC1CCCC1)N1CCC(N2CCN(Cc3ccccc3)C(=O)C2=O)CC1	i	-0.52
O=C(CSc1nccnc1N1CCSCC1)Nc1ccc2c(c1)OCO2	i	-0.44
Cc1nc2nc3c(c(N(C)C)n2n1)CCC3	i	-1.3
O=C(CCCn1nc(-c2ccccc2)c2cc(Cl)ccc21)NCc1ccccn1	i	0.36
O=C(c1ccc(Br)cc1)N1CCN(c2cc(=O)n3nc(-c4ccccc4)sc3n2)CC1	i	0.85
COc1ccc(-c2cc3nc(C)cc(N4CCOCC4)n3n2)cc1OC	i	-0.41
CC1CCN(S(=O)(=O)c2nnc(NC(=O)c3ccccc3Cl)s2)CC1	i	0.32
COc1cc(OC)c(NC(=O)Cn2cnc3nc4c(cc3c2=O)CCCC4)cc1Cl	i	2.8
Clc1cccc(-c2csc(Cc3nc(-c4ccc5c(c4)OCO5)no3)n2)c1	i	1.6
CCOC(=O)c1c(C)[nH]c(C)c1S(=O)(=O)NCC(=O)NC(C)(C)C	i	0.03
COc1ccccc1-c1c(C)[nH]n2c(=O)cc(C)nc12	i	-0.15
Cc1ccc2c(c1)-c1c(cnn1CC(=O)NCc1ccccc1)CO2	i	0.76
COCCCNC(=O)C1CCN(c2ncnc3c2oc2ccccc23)CC1	i	-0.82
COc1cc(-c2ccno2)ccc1S(=O)(=O)N1CCCC1	i	-1.2
CCOCCCN(C1CCN(C(C)=O)CC1)S(=O)(=O)c1cc2c(cc1Cl)NC(=O)CO2	i	-0.24
CCN1CCN(c2cc(-c3ccccc3)nc(C)n2)CC1	i	-0.84
Cc1ccc(N2C(=O)CN(C3CCCC3)[C@H]3CS(=O)(=O)C[C@H]32)cc1C	i	-0.42
Cc1ccc(OCc2cc(=O)n3oc(C)cc3n2)c(NC(=O)C2CC2)c1	i	-2.3
C=CCNc1nc(Nc2ccc(Cl)cc2)c2cnn(-c3ccccc3)c2n1	i	0.51
Cc1csc(-c2cc(S(=O)(=O)NCCCN3CCc4ccccc4C3)c(C)s2)n1	i	-1.1
Cc1nc2sc3ccccc3n2c(=O)c1S(=O)(=O)NCc1ccccc1	i	-1.5
O=C(c1ccc(N2C(=O)CCS2(=O)=O)cc1)N1CCc2ccccc2C1	i	0.28
CCC(C)NC(=O)CN(c1ccc(C)cc1)S(=O)(=O)c1c(C)nn(C)c1C (stereo not given)	i	-0.15
O=S(=O)(NC1CCCCC1)c1cc(-c2noc(C3CCCC3)n2)cs1	i	3.6
COc1ccc(NC(=O)c2cc(OCCCN(C)C)nn2Cc2ccccc2)cc1	i	0.87
CN[C@@H]1[C@@H](O[C@H]2O[C@H](CO)[C@@H](N)[C@H](O)[C@H]2O)O[C@H]2C[C@@H](N)[C@@H](O[C@H]3[C@H](O)[C@@H](O)[C@H](N)C[C@@H]3N)O[C@@H]2[C@@H]1O	i	0.92
CCOc1cc2c(cc1OCC)C1C(C(=O)N3CCC(Cc4ccccc4)CC3)c3ccccc3C(=O)N1CC2 (stereo not given)	i	0.96
CCCC(=O)NC(C)(C)c1nc2c(c(C(=O)NC)n1)OCO2	i	0.11
NC(=O)c1nc(-c2cccnc2)nc2c1[nH]c(=O)n2-c1ccc(Cl)cc1	i	-0.37
Cc1cc(NC(=O)C2CCCCC2)n(-c2ncnc3c2cnn3-c2ccc(F)cc2)n1	i	-1.3
O=C(NCCN1CCOCC1)C1CCN(c2cnc(N3CCSCC3)nc2)CC1	i	1
O=C(c1cc(=O)n2c(nc3ccccc32)s1)N1CCN(c2ccccn2)CC1	i	1.1
Cc1[nH]c(C)c(S(=O)(=O)NC2CCN(Cc3ccccc3)CC2)c1C(=O)N1CCCCC1	i	-0.76
Cc1ccccc1-c1noc2ncnc(NC3CCCC3)c12	i	-1.5

From PubChem BioAssay
